Compound activity deposited in PubChem BioAssay by National Center for Advancing Translational Sciences (NCATS).
Cruzain inh Det = cruzain (T. cruzi) inhibition with detergent | purified cruzain, Z-FR-AMC fluorescence, 0.01% Triton | Potency, µM, for the others: max response, negative = inhibition, most hits filed as inhibitors | P25779 | hit rate 0.43% among 200,000;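 note: plate controls were neutral wells for no effect and buffer without enzyme for full effect; nearly all actives have a fitted effect of over 40% in size; top concentration of the series not given in the record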
Target sequence (P25779 123-467 limits assumed): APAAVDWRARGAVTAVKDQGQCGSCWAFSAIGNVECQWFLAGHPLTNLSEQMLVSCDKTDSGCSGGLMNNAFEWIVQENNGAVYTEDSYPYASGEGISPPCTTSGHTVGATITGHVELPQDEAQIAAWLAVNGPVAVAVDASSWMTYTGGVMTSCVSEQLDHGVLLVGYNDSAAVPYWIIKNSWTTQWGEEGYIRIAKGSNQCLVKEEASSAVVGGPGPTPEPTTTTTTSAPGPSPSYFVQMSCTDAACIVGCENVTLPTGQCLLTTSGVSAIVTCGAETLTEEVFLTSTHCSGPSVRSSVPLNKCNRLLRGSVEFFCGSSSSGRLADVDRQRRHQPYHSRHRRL
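Compounds were screened in titration against cruzain (1.5 nM) with 0.01% Triton X-100 to counter colloidal aggregation. Activity was the AMC fluorescence increase over 60 s after adding 2 uM Z-FR-AMC at pH 5.5.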
Cruzain noTriton = blocks cruzain activity in detergent-free assay | hit rate 2.3% among 200,000 | P25779 | AID 1476 | purified cruzain, Z-FR-AMC fluorescence, no detergent | Potency, µM, for the others: max response, negative = inhibition, actives largely listed as inhibitors;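 note: plate controls were enzyme without inhibitor for no effect and buffer without enzyme for full effect; nearly all actives have a fitted effect of over 40% in size; top concentration of the series not given in the record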
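Purified cruzain at 1.5 nM, pre-incubated 15 min with compound at room temperature in 100 mM sodium acetate pH 5.5, 5 mM DTT, 0.00005% Triton X-100. Reaction started with 2 uM Z-FR-AMC; AMC fluorescence increase over 60 s gives rate.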
SARS PLpro yeast = SARS-CoV PLP inhibition in yeast. Potency, µM (titrated, usually from 32.9 µM), for inactives: top-dose activity, positive = growth rescue. hit rate 0.19% among 330,000. S. cerevisiae expressing SARS-CoV PLpro, growth rescue; control for the full effect not named in the record; active means well fitted rising curve with a large enough effect; inconclusive means small, poorly fitted or top-dose-only effect; inactive means no such curve, though single readings can be large or run the other way; note: 0% is about no effect; nearly all actives have a fitted effect of over 55% in size; growth read by luminescence after 48 h
RE007 growth inh = less growth of the S. pombe RE007 Vpr strain. S. pombe RE007 Vpr strain, BacTiter-Glo ATP luminescence, 24 h; control for the full effect not named in the record. Potency, µM (doses to about 92.2 µM), for inactives: at the highest dose activity change, negative = less growth. hit rate 0.21% among 360,000; active = well fitted falling curve with a large enough effect; inconclusive = small, poorly fitted or top-dose-only effect; inactive = no such curve, though single readings can be large or run the other way;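 note: % is set by controls: 0 for no effect and ±100 for the full control effect; nearly all actives have a fitted effect of over 50% in size; the assay follows cell death caused by Vpr and the record does not say whether a fall means rescue or toxicity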
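Fission yeast strain RE007, carrying one chromosomally integrated HIV-1 vpr copy, was seeded at OD 0.01 in PMG+AL medium with 23 nL pinned compound. After 24 h at 30 °C and 99% humidity, viability was read by BacTiter-Glo luminescence.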
NS1 function inh = influenza NS1 inhibition; Potency, µM (top dose mostly 46.1 µM), inactives show at the top dose activity, positive = more growth; hit rate 0.4% among 270,000; S. cerevisiae slowed by influenza A NS1, growth recovery by OD600; active means well fitted rising curve with a large enough effect; inconclusive means small, poorly fitted or top-dose-only effect; inactive means no such curve, though single readings can be large or run the other way; note: nearly all actives have a fitted effect of over 50% in size
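OD600 was taken as the measure of yeast growth restored by compound in an NS1-expressing S. cerevisiae strain. Cells had been washed out of glucose medium and diluted 1:100 into galactose -URA medium, pH 6.0.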
2A StopGo = lowers the luciferase signal of an FMDV 2A StopGo reporter. AID 1159524. hit rate 1.2% among 410,000. human cells with a luciferase reporter of 2A StopGo recoding; control for the full effect not named in the record. Potency, µM (doses to about 57.9 µM), inactives show at the highest dose signal change, negative = less light; active = well fitted falling curve with a large enough effect; inconclusive = small, poorly fitted or top-dose-only effect; inactive = no such curve, though single readings can be large or run the other way; tested in HEK293T cells; note: % is set by controls: 0 for no effect and ±100 for the full control effect; nearly all actives have a fitted effect of over 45% in size; luciferase light after 4 h
LASV entry inh = Lassa virus entry inhibition; Lassa virus pseudotype entry inhibition, cell reporter; control for the full effect not named in the record; Potency, µM (highest dose often 37.9 µM), inactives show top-dose activity change, negative = inhibition, actives largely listed as inhibitors; hit rate 1.2% among 300,000; active means well fitted inhibition curve with a large enough effect; inconclusive means small, poorly fitted or top-dose-only effect, or effect the other way; inactive means flat fitted curve, though single readings scatter; tested in HEK293 cells; note: % is set by controls: 0 for no effect and ±100 for the full control effect; nearly all actives have a fitted effect of over 50% in size; luciferase read-out
MARV entry inh = Marburg virus entry inhibition; Marburg virus pseudotyped entry inhibition, cell reporter; control for the full effect not named in the record; about a third of the inactives were read at about 46 µM; Potency, µM (top dose mostly 37.8 µM), for inactives: top-dose activity change, negative = inhibition, actives largely listed as inhibitors; hit rate 1.8% among 300,000; active = well fitted inhibition curve with a large enough effect; inconclusive = small, poorly fitted or top-dose-only effect, or effect the other way; inactive = flat fitted curve, though single readings scatter; tested in HEK293 cells; about a fifth of its hits are not listed in these tables; note: % is set by controls: 0 for no effect and ±100 for the full control effect; luciferase read-out
* = called active by the depositor; ? = inconclusive; . = not tested or not shown; & = joins results of further samples; [ ] = another dose, or the depositor's remark. Unless noted, calls come from the whole dose curve; as a rule, active = well fitted curve in the direction sought with a large enough effect; inconclusive = small, poorly fitted or top-dose-only effect, or another doubt; inactive = no such curve, though single readings can be large; an effect the other way counts as inactive or inconclusive. Potency is the fitted concentration of half-maximal effect.

structure | Cruzain inh Det | Cruzain noTriton | SARS PLpro yeast | RE007 growth inh | NS1 function inh | 2A StopGo | LASV entry inh | MARV entry inh
O=C(CSc1nc(-c2ccco2)cc(C(F)(F)F)n1)N1CCN(Cc2ccccc2)CC1 | -5.6% | 28% | -2% | 6% | -47% | ? | . | .
Cc1ccc(-c2cc(C(=O)N3CCN(c4ccccc4O)CC3)c3ccccc3n2)cc1 | . | . | -10% | -16% | . | 14% | ? | ?
Cc1cccc(C(=O)NCCc2sc(-c3ccccc3)nc2C)c1 | -9.3% | -5% | . | . | . | 6% | -15%[46.1 µM] | .
COc1cc(/C=C(/C#N)C(=O)Nc2cc(C(F)(F)F)ccc2Cl)ccc1OCC(=O)Nc1cccc(C(F)(F)F)c1 | . | . | . | 4% | . | 1% | -4%[46.1 µM] | -11%[46.1 µM]
Cn1c(Cn2c(=O)sc3ccccc32)nnc1SCC(=O)NC1CCCC1 | -2.6% | -6% | -13% | 4% | -5% | -10% | . | .
Nc1scn[n+]1Cc1cccc2cccnc12 | . | . | 3% | -2% | -6% | -5% | . | .
Cc1ccccc1N(C=O)c1ccccc1C | . | . | . | 40% | . | -7% | 9%[46.1 µM] | -1%[46.1 µM]
COC(=O)C1=C(C)n2nnnc2NC1c1ccc(Cl)cc1 (stereo not given) | 1.6% | -2% | 0% | 4% | -12% | -19% | ? | -22%
Cc1cc(C)c(NC(=S)NC(=O)c2ccc(-c3ccccc3)cc2)c(C)c1 | -6.1% | ? | -3% | -14% | 3% | ? | 8.9µM* | ?
CCOC(=O)c1cccc(NC(=O)c2nn(-c3ccc(OC)cc3)c(=O)c3c2c2ccccc2n3C)c1 | -0.9% | -10% | . | . | . | -14% | ? | -3%[46.1 µM]
COCCNC(=O)CN(C(=O)CCC(=O)Nc1ccccn1)c1ccc(OC)cc1 | . | . | 1% | -4% | 20% | 6% | 13%[46.1 µM] | 7%[46.1 µM]
Cc1cc(NC(=O)c2ocnc2C)no1 | 6.5% | 3% | 1% | 2% | 0% | 27% | -10% | 10%
CO/N=C/NC(=O)c1cn(-c2ccc(F)cc2)c(=O)c2ccccc12 | 0.4% | -2% | 6% | 21% | 4% | 12% | 5% | 13%
Cc1ccc(NC(=O)CCNS(=O)(=O)c2cc(Br)cnc2N)cc1Cl | -5.8% | -6% | ? | 19% | 0% | 14% | ? | -5%
CCOc1ccc(C(=O)CN2C(=O)NC3(CCCCCC3)C2=O)cc1 | . | . | 4% | -1% | . | -7% | 6% | 26%[46.1 µM]
Cc1ccc(S(=O)(=O)N2CCC(C(=O)NCCCN3CCCCCC3)CC2)cc1 | -2.7% | 23% | -2% | -10% | 5% | -13% | 0% | 4%
Cc1ccccc1OCC(O)Cn1c(N2CCN(c3ccccc3)CC2)nc2c1c(=O)[nH]c(=O)n2C (stereo not given) | -0.5% | 3% | -4% | 5% | -2% | ? | 7%&-10% | -20%&-13%
CC(C)(C)c1ccc(Oc2coc3cc(OCC(=O)O)ccc3c2=O)cc1 | . | . | 1% | 1% | 10% | 4% | ? | -4%[46.1 µM]
Cc1cccc(N2CCN(S(=O)(=O)c3cc(C(=O)Nc4ccc(Oc5ccccc5)cc4)ccc3F)CC2)c1C | 0.8% | ? | . | . | . | ? | ? | .
O=C(Nc1cccnc1)c1noc2c1CCCC2 | 3.7% | -6% | 0% | ? | -8% | 45%[activator] | -1% | 16%
CN(C)c1ccc(CNCCC2(O)CCOC(C)(C)C2)cc1 (stereo not given) | 0.8% | -5% | 5% | -9% | -9% | 9% | 26% | 7%
CCOc1ccc(C(C(=O)NCC2CCCO2)N(Cc2ccccc2)C(=O)c2snc(C(N)=O)c2N)cc1 (stereo not given) | . | . | 0% | 5% | -2% | 4% | ? | ?
Cc1ccc2nc(/C(C#N)=C\c3ccc(N4CCCCC4)c([N+](=O)[O-])c3)[nH]c2c1 | -2.5% | ? | . | 19% | ? | . | ? | ?
COc1cc(OC)cc(C(=O)NCc2ccc3c(c2)CCN3C(=O)c2ccccc2)c1 | -1.9% | 28% | . | . | . | -5% | ? | .
O=C(O)CCCC(=O)Nc1ccc(N2CCCC2)cc1 | -1.5% | -7% | 1% | 16% | -4% | -6% | 13% | 5%[46.1 µM]
COc1ccc(NC(=O)c2sc3nc(C)nc(N4CCN(c5ccccn5)CC4)c3c2C)cc1Cl | . | . | -3% | 5% | -23% | -20% | ? | 2%[46.1 µM]
COc1ccc(OC)c(NS(=O)(=O)c2ccc3c(c2)n(C)c(=O)n3C)c1 | 1.0% | 6% | -4% | 12% | -9% | 22% | 12% | -15%
O=c1[nH]n(-c2ccccn2)c(=O)c2ccccc12 | 2.6% | 8% | -4% | 8% | 1% | -14% | -1% | 12%[46.1 µM]
CC(=O)c1cnc2c(-c3ccccc3)c(-c3ccccc3)nn2c1C | . | . | -7% | -17% | -4% | 4% | . | .
Cc1cc2ccccc2c(=O)n1CC(=O)NCC(=O)N1CCCC(C)C1 (stereo not given) | -0.5% | -3% | 2% | -1% | 1% | -20% | -15% | ?
CC1CCc2sc(C(=O)N3CCN(c4ncccn4)CC3)cc2C1 (stereo not given) | . | . | . | ? | . | ? | 1% | 19%
Cc1ccc(CNC(=O)CNS(=O)(=O)c2ccc(Br)s2)cc1 | . | . | -3% | -9% | 14% | 7% | -8% | -23%[46.1 µM]
Cc1ccc(C)c(S(=O)(=O)N(C)C2CCS(=O)(=O)C2)c1 (stereo not given) | . | . | 2% | 1% | . | -18% | -6% | -5%[46.1 µM]
Cc1cccc(COC(=O)Nc2ccc(NC(=O)c3ccccc3Cl)cc2)c1 | . | . | 0% | -5% | 5% | -2% | . | .
COc1ccc(-c2nc3ccccc3n3c(-c4cccc(C)c4)c4c(=O)n(C)c(=O)n(C)c4c23)cc1 | -1.7% | 4% | . | . | . | ? | 3%[46.1 µM] | ?
C=CCSc1nnc(COc2ccc(=O)n(-c3ccccc3)n2)n1CC | . | . | 0% | 1% | . | -2% | 8% | 16%[46.1 µM]
COc1ccc(CC(=O)NC(C)c2ccc(Cl)c(Cl)c2)cc1S(=O)(=O)N1CCOCC1 (stereo not given) | . | . | . | 0% | . | ? | -30% | -3%
Cc1ccccc1-c1nc(-c2ccccn2)no1 | . | . | -20% | ? | 0% | 6.3µM* | 1.3µM* | ?
COc1ccc(N(CC(=O)N2CCN(c3ccc(Cl)cc3)CC2)S(=O)(=O)c2c(C)n[nH]c2C)cc1 | . | . | 2% | 28% | . | -1% | ? | ?
COc1ccc(NS(=O)(=O)c2csc(C(N)=O)c2)cc1OC | . | . | 2% | 0% | 2% | 42%[activator] | -2% | 16%
COc1cc(-c2cc3n(C)c(C)c(CCC(=O)NC4CCCCC4)c(=O)n3n2)cc(OC)c1OC | -1.2% | -10% | . | . | . | -1% | 16%[46.1 µM] | .
Cc1nnc(SCC2=C(C(=O)O)N3C(=O)C(NC(=O)C(C)n4nc(C(F)(F)F)cc4C)C3SC2)s1 (stereo not given) | . | . | -1% | 2% | . | -11% | -4%[46.1 µM] | 5%[46.1 µM]
COCCN(C(=O)Cn1nnc2ccccc21)C(C(=O)NC1CCCC1)c1cc(OC)ccc1OC (stereo not given) | -3.5% | -3% | 3% | 1% | -14% | -3% | -23% | 3%&3%
CCOc1ccccc1NC(=O)N1CCCC(c2nc3c(nnn3Cc3ccc(C)cc3)c(=O)[nH]2)C1 (stereo not given) | -2.0% | ? | -4% | -9% | -41% | -26% | ? | 2%&-14%
COc1ccc(C(=O)C[n+]2ccc(N)c(C)c2C)cc1 | . | . | 1% | -14% | -1% | -24% | ? | -3%[46.1 µM]
CCOC(=O)C(NC(=O)c1ccccc1F)(Nc1cc(C)on1)C(F)(F)F (stereo not given) | -4.4% | -14% | 27% | 0% | -7% | -10% | 0% | 0%
CCOC(=O)c1c(NC(=O)c2ccco2)sc2c1CCCCC2 | -10% | -12% | 2% | -17% | -6% | . | 0% | ?
O=C(NCCCN1CCOCC1)c1ccc2c(c1)N(Cc1ccccc1)C(=O)c1ccccc1S2=O (stereo not given) | . | . | 4% | 4% | 12% | 3% | . | .
CCN(CCCl)c1cc(CN(C)C)cc(NC(=O)c2ccc(C(=O)Nc3cc(CN(C)C)cc(N(CC)CCCl)c3)cc2)c1 | . | . | . | 23% | . | ? | ? | ?
N#C/C(=C\c1ccc(F)cc1F)S(=O)(=O)c1ccccn1 | . | . | 1% | -7% | 5% | 12% | -2% | 2%

Next results:
structure | Cruzain inh Det | Cruzain noTriton | SARS PLpro yeast | RE007 growth inh | NS1 function inh | 2A StopGo | LASV entry inh | MARV entry inh
O=C(c1cc2ccccc2o1)N1CCCCCC1 | 2.2% | 2% | -30% | -14% | -5% | 67%[activator] | 22% | 19%
O=S(=O)(NC1CCCC1)c1ccccc1Br | . | . | 2% | -18% | 7% | 41%[activator] | . | .
CCOc1cc(CN2CCCC(C(=O)c3cccc(C(F)(F)F)c3)C2)ccc1O (stereo not given) | . | . | 0% | -9% | 5% | ? | ? | ?
COc1ccccc1NC(=O)CC12CC3CC(CC(Br)(C3)C1)C2 | . | . | -1% | 1% | 14% | 16% | 10% | 15%[46.1 µM]
O=C(NCCc1nc2ccccc2n1Cc1ccc(Cl)cc1)c1ccccc1 | 6.3µM* | 17% | . | . | . | ? | 12%[46.1 µM] | -3%[46.1 µM]
COc1ccc(/C=N\NS(=O)(=O)c2ccc(Cl)cc2)cc1COc1ccccc1[N+](=O)[O-] | 0.8% | ? | 2% | 1% | 6% | 11% | -25% | -38%[46.1 µM]
COc1ccc(OC)c(NC(=O)NC2(C(F)(F)F)Oc3ccccc3O2)c1 | 5.0% | -26% | 9% | -4% | ? | -12% | -2% | -29%&-29%
Cn1c(NCc2ccccc2)cc(=O)n(C)c1=O | 0.1% | -6% | -1% | 5% | 6% | -26% | ? | -23%[46.1 µM]
COc1ccccc1NC(=O)COc1cccc(-n2cnnn2)c1 | -1.3% | -3% | 3% | 10% | -12% | -11% | -9% | -1%
COC(C(=O)NNS(=O)(=O)c1ccc([N+](=O)[O-])cc1)c1ccccc1 (stereo not given) | . | . | -4% | -12% | 3% | 8% | 1%[46.1 µM] | 7%[46.1 µM]
